YopH PTP inh: YopH tyrosine phosphatase inhibitors, primary screen, biochemical, fluorescence Ex485/Em525 | YopH tyrosine phosphatase [Yersinia enterocolitica] | inhibition, %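 (about 10 µM by stock and volumes)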 | actives 0.16% (n = 140,000);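 active = inhibition of 50% or more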;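 also: controls were vehicle for no effect and minimum signal wells for full effect; inactives centre near -20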
Arbovirus anti: antivirals against arbovirus infection, primary screen, cell-based, full library, 10K replicate subset; actives 0.37% (n = 200,000); arbovirus infection cell-based antiviral screen; inhibition, % at 10 µM; AID 1251, 2008;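 active = inhibition from about 30%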;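 also: bluetongue infection of BSR cells; cell survival read as ATP light after 72 h; 0% = infected wells without compound and 100% = uninfected wells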
Mtb growth: M. tuberculosis H37Rv growth inhibitors, H37Rv strain (AID 1626). actives 0.95% (n = 220,000). one-dose inhibition, % at 10 µM; IC50 in µM for titrated hits. M. tuberculosis H37Rv growth inhibition; higher % means a stronger effect;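 active = confirmed in a dose series; inconclusive = inhibition above 80% but not taken into the dose series; inactive = below 80% or under 30% at every dose of the series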;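 also: bacteria incubated seven days before Alamar blue readout; 0% = bacteria only wells and 100% = bacteria with antibiotic wells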
Mtb betalactam: beta-lactam sensitization of Mtb H37Rv, H37Rv; inhibition, % at 25 µM; actives 0.27% (n = 330,000); M. tuberculosis H37Rv growth with meropenem, percent inhibition; hits of this screen are not shown here;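 active = about 74% or more and at least 40 points above the plate without the antibiotic, then above 30% in a dose series; inconclusive = first-round hits that could not be retested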;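 also: growth measured after seven days incubation then overnight dye step; 0% = bacteria only wells and 100% = bacteria with antibiotic; twin plates without the antibiotic show which effects depend on it; some results filed as inactive read as strong as hits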
RecA intein inh: Mtb RecA intein splicing inhibitors, primary screen, biochemical, fluorescence, HTS; Protein RecA (Mycobacterium tuberculosis (strain ATCC 25618 / H37Rv)), P9WHJ3; cell-free RecA intein splicing; inhibition, %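 (about 9 µM by stock and volumes)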; actives 0.75% (n = 290,000); in the data active = inhibition above about 30%; inconclusive = no clear call, values can overlap the other calls;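 also: 0% = vehicle wells and 100% = reference inhibitor control wells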
Target sequence (P9WHJ3 whole entry, looked up): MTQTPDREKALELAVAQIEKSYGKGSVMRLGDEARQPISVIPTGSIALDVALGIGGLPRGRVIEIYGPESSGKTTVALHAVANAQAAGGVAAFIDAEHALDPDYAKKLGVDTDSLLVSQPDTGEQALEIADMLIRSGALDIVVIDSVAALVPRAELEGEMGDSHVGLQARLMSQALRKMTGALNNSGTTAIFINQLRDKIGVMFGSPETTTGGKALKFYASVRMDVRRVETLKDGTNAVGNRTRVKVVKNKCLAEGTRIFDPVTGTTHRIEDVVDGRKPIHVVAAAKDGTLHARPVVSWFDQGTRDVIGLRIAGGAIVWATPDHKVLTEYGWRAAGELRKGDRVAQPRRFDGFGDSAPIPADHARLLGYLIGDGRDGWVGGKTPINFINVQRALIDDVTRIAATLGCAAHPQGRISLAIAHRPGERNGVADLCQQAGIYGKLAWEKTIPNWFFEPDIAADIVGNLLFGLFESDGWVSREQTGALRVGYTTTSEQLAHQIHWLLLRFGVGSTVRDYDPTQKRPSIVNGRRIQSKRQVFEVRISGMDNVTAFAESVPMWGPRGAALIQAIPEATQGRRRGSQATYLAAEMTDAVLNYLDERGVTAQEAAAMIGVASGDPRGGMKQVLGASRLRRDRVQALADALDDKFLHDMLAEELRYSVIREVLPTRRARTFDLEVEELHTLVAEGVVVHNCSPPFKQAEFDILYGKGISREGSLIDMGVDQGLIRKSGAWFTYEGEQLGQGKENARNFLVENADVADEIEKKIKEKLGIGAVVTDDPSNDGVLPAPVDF
Arbovirus anti repeat: second read-out of Arbovirus anti, no call of its own (marks repeat the call); inhibition, %; measured here: 10K subset replicate screen; many hits read low in the repeat;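 first of two repeat runs on a subset; 0% = infected and 100% = uninfected wells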
Starred values were filed as active, the others as inactive; u = inconclusive; x = no result given. Some of the compounds tested. The share of hits here may be higher or lower than overall.

SMILES | YopH PTP inh | Arbovirus anti | Mtb growth | Mtb betalactam | RecA intein inh | others
COC(=O)C1CCN(C(=O)CC(NC(=O)C(F)(F)F)c2cccs2)CC1 (centres undefined) | x | x | x | -6 | 2.5
O=C(CN1C(=O)S/C(=C\C=C\c2ccccc2)C1=O)Nc1ccc(C(=O)O)cc1 | x | x | -6% | 1 | 35*
O=C(Cn1c(-c2cscn2)nc2ccccc21)Nc1cc(F)ccc1F | -38 | -7 | 5% | -12 | 1.4
O=C(O)CSCC(=O)Nc1ccccc1SCCS(=O)(=O)c1ccc(Cl)cc1 | x | x | x | -4 | -0.4
CNC(=O)COc1ccc(S(=O)(=O)Nc2ccc(OC)cc2)cc1 | x | -4 | -2% | 1 | -0.3
O=C(O)c1cc(-c2ccc3ccccc3c2)nc2ccc(F)cc12 | x | x | x | 8 | -0.2
COC(=O)c1nn(-c2ccccc2)c(=O)cc1Sc1ccc(Cl)cc1 | x | 24 | -4% | -10 | -0.5
NC(=O)CCCn1c(C(=O)c2ccc(Cl)cc2)c2ccc(C(F)(F)F)cc2[n+]1[O-] | x | x | x | 0 | 0.6
CC(NC(=O)Cn1cnnn1)C12CC3CC(CC(C3)C1)C2 (centres undefined) | -32 | 0 | -9% | 2 | 1.3
O=C(CSc1nnc2c(Cl)cc(Cl)cn12)NC1CCS(=O)(=O)C1 (centres undefined) | -33 | 8 | 4% | 9 | 2.2
CN1CCN(CCCCOc2ccc(F)cc2)CC1 | -26 | 8 | -12% | 7 | -0.8
COc1ccc(CCNC(=O)c2cc(-c3cccs3)on2)cc1OC | -38 | -7 | -2% | x | -0.2
COc1ccc(CCNC(=O)c2ccc3c(SCC(=O)O)c4c(nc3c2)CCCC4)cc1OC | x | 12 | -2% | 6 | x
Cc1cc(C)cc(OCC(O)Cn2nc(C)cc2C)c1 (centres undefined) | x | x | x | 3 | 4.9
O=C(NCSc1ccncn1)c1ccccc1 | -61 | 6 | -3% | -12 | -6.6
O=C(CCn1c(=O)sc2ccccc21)NC1CCCCC1 | x | x | x | 8 | -0.5
Cc1cccc(NC(=O)NCCN2C(=O)C3C4C=CC(C4)C3C2=O)c1 (centres undefined) | x | 0 | 1% | 11 | -1.5 | Arbovirus anti repeat=-3
Cc1cccc(/C=C/C(=O)c2ccc([N+](=O)[O-])o2)c1 | x | x | x | 100 | -0.9
CCN(CC)CCCN1C(=O)C(O)=C(C(=O)c2cc3ccccc3o2)C1c1ccccn1 (centres undefined) | -28 | 1 | -2% | -9 | x
CC1CCC(NC(=O)c2ccc(NC(=O)c3ccc(=O)[nH]c3)cc2)CC1 (centres undefined) | -34 | -6 | x | -2 | -1.7
CCOC(=O)c1ccc(NS(=O)(=O)c2c(C)[nH]c(C)c2C(=O)N2CCCCC2)cc1 | x | x | x | -8 | -0.8
O=C(O)c1ccccc1/C=N/NC(=O)C1CCCCC1 | x | x | -10% | -5 | 3.0
Cc1ccccc1-c1nc2cc(N)ccc2o1 | -31 | -4 | 15µM* | 99 | -2.0
O=C(Nc1ccc(Cl)cc1Cl)C1CCCO1 (centres undefined) | x | x | x | -12 | 0.8
CSc1nc2nc(C)c(C/C=C/c3ccccc3)c(=O)n2[nH]1 | x | 4 | 11µM* | 100 | -6.6

Following part
SMILES | YopH PTP inh | Arbovirus anti | Mtb growth | Mtb betalactam | RecA intein inh | others
COc1cccc(C(=O)/C=C/Nc2ccc(NC(C)=O)cc2)c1 | -12 | -14 | 0% | 65 | -3.3
O=C(COc1ccc(F)cc1Br)NCc1ccccn1 | -13 | 0 | -13% | 7 | 0.4
CC(C)c1ccc(C(C(=O)NC2CCCC2)N(C(=O)c2csnn2)C2CC2)cc1 (centres undefined) | x | x | x | -1 | -3.6
COc1ccccc1N1CCN(/N=C/c2cc(OC)c(OC)c(OC)c2)CC1 | 8 | 4 | -2% | 3 | 0.0
CC(C)=CC(=O)Nc1ccc2c(c1)OCO2 | -21 | -4 | -4% | 2 | 1.8
COc1ccc(CCNc2cc(C)nc3c(-c4ccc(Cl)cc4)c(C)nn23)cc1OC | 16 | 15 | 1µM* | 95 | 4.1
COc1cc(-c2nc3ccccc3c(=O)n2N)cc(OC)c1OC | -19 | 1 | -1% | -3 | -0.8
Cc1cccc(OCCOCCSc2ncccn2)c1 | -36 | 3 | -5% | -6 | -0.4 | Arbovirus anti repeat=-5
N#CCCN1CCN(C(CNS(=O)(=O)c2ccc(Cl)cc2)c2ccccc2)CC1 (centres undefined) | -47 | 1 | 2% | -18 | -2.0 | Arbovirus anti repeat=-2
Cn1c(CNC(=O)c2ccco2)nnc1SCC(=O)Nc1ccccc1Cl | x | x | x | -10 | 2.3
Cc1ccc(N2CC3=C(C2=O)C(c2ccccc2)NC(=O)N3C)cc1 (centres undefined) | 1 | 2 | -6% | 3 | -5.4
CC(C)CCNc1nnnc2c1sc1nc(N3CCOCC3)c3c(c12)CC(C)(C)SC3 | -2 | -10 | 75% | 66 | 7.5
COc1ccc(OCCCC(=O)OC(C)C(=O)Nc2ccc(NC(C)=O)cc2)cc1 (centres undefined) | x | x | x | -14 | 0.3
CC(C)(C)NC(=O)c1cnn(-c2ccccc2)c1NC(=O)c1ccccc1 | -9 | 7 | 5% | 3 | x
O=C(COC(=O)c1ccc[nH]c1=O)Nc1ccc2c(c1)OC(F)(F)O2 | x | x | -4% | -4 | 0.2
CC(C)(C)CN1CCN(CC#Cc2ccccc2)CC1CCO (centres undefined) | x | x | x | 6 | 1.2
COc1ccc(-n2c(C)c(C)c3c(NCCO)ncnc32)cc1 | x | x | x | 7 | -1.5
O=C(COC(=O)c1cccnc1Nc1ccccc1F)NCc1ccc2c(c1)OCO2 | -43 | -17 | -2% | 0 | -1.6
CCN(CC(=O)Nc1c(F)cccc1F)C(=O)/C=C/c1ccc(OCC#N)c(OC)c1 | x | x | x | -2 | -2.3
COCCCN1C(=O)C(O)=C(C(=O)c2ccco2)C1c1ccc(Br)cc1 (centres undefined) | -51 | 1 | -4% | 9 | 3.0
CCCCNS(=O)(=O)c1ccc(NC(=O)Cc2ccccc2[N+](=O)[O-])cc1 | x | 2 | -3% | 8 | 1.7
CCc1cccc(CC)c1NC(=O)c1ccccc1CCc1ccccc1 | -11 | -3 | 2% | 2 | -2.7
Cc1cc(C)nc(-n2nc(C)cc2NC(=O)COC(=O)CCC(=O)c2cccs2)n1 | -5 | -1 | -3% | -6 | 1.2
Cc1nc(C(=O)NCCO)cc2c1[nH]c1ccccc12 | x | x | x | -1 | -1.1
O=C(c1ccco1)N1CCN(C(=O)C2Cc3ccccc3CN2S(=O)(=O)c2ccc(F)cc2)CC1 (centres undefined) | -4 | 9 | -1% | -7 | 0.3 | Arbovirus anti repeat=8

The results go on:
SMILES | YopH PTP inh | Arbovirus anti | Mtb growth | Mtb betalactam | RecA intein inh | others
O=C(CN1C(=O)c2cccc3cccc1c23)N1CCc2ccccc2C1 | -4 | -3 | 0% | -11 | -15
Cc1nn(-c2cccc(C(=O)O)c2)c(C)c1[N+](=O)[O-] | x | -7 | -3% | -1 | -2.3
COc1ccccc1N(CC(=O)N/N=C/c1ccc(C(=O)O)cc1)S(=O)(=O)c1ccc(C)cc1 | x | x | 1% | -6 | 1.5
Cc1[nH]c2c(ccc3ccccc32)c1C1C(CCN)C1(C)C (centres undefined) | -10 | -42 | 8% | 16 | 4.7
O=C(Nc1ccccc1)c1c(F)cccc1F | -18 | 0 | -3% | 5 | -1.1
Cc1cccc(-n2c(-c3ccccc3)c[nH]c2=S)c1C | x | x | x | 0 | 3.8
C1CCc2c(nc3nnnn3c2NC2CCCC2)C1 | -86 | -1 | -12% | 1 | 1.7
S=c1[nH]nc(-c2cccnc2)n1-c1ccc2c(c1)OCCO2 | x | 3 | -4% | 3 | x
CC(C)c1nnc2c(N(C)S(=O)(=O)c3ccccc3)nc3ccccc3n12 | x | x | x | -7 | -0.5
COc1ccc(-c2cc(C(=O)N/N=C(\C)c3cccnc3)c3ccccc3n2)c(OC)c1 | x | x | x | 7 | -5.8
Cc1cc(OC(C)C(=O)NCCCN2CCCC2=O)c2c(C)c(C)c(=O)oc2c1 (centres undefined) | x | x | x | -3 | 4.3
NC(=O)c1c(NC(=O)C(=O)NCCCN2CCOCC2)sc2c1CCCC2 | x | x | x | -3 | -1.3
Cc1ccc(O)c(NC(=O)c2cccc(NC(=O)c3ccco3)c2)c1 | -16 | 0 | 1% | -2 | -2.8
COc1ccccc1C(=O)NCC(=O)OC(C)C(=O)N1CCOCC1 (centres undefined) | x | x | x | -9 | -6.2
COC(=O)c1ccc(COc2ccc(C#N)cc2)o1 | x | x | x | 7 | -2.0
COC(=O)C1CCCCN1C(=O)c1ccc(OC2CCN(C(C)=O)CC2)c(OC)c1 (centres undefined) | x | x | x | 2 | -0.4
Cc1cc(S(=O)(=O)N(Cc2ccc(C(C)C)cc2)CC2CCCO2)ccc1-n1cnnn1 (centres undefined) | 14 | -4 | 0% | 6 | 9.3
Cc1ccc2nc(NC(=O)C3CCN(S(=O)(=O)c4cccnc4)CC3)sc2c1 | -15 | 15 | 12% | -3 | -0.7
Cc1ccc(Cn2ccc(NC(=O)c3cc(-c4ccco4)on3)n2)cc1 | -43 | 4 | 6% | u | 1.2
CCc1ccc(NC(=O)N2CCN(c3ccccc3)CC2)cc1 | x | -4 | -4% | 10 | 3.2
CCOc1cc2[nH]c(=S)n(CCC(=O)N3CCc4ccccc4C3)c(=O)c2cc1OCC | -49 | -6 | -7% | 19 | 0.3
Cc1cccc(-c2nc(C#N)c(N3CCCCC3)o2)c1 | x | x | x | -2 | -0.7
CCn1c(SCC(=O)OC)nc2cc(S(=O)(=O)N3CCOCC3)ccc21 | x | x | x | -3 | 3.5
O=C(NCCCN1CCOCC1)c1cc(-c2cccs2)on1 | -34 | -12 | 8% | x | 5.5
CCN(CC(=O)Nc1c(F)cccc1F)C(=O)c1cc(S(=O)(=O)N(CC)CC)ccc1N1CCCCC1 | x | x | x | -10 | -1.3

Molecules shown so far with a CF3 group:
SMILES | YopH PTP inh | Arbovirus anti | Mtb growth | Mtb betalactam | RecA intein inh | others
COC(=O)C1CCN(C(=O)CC(NC(=O)C(F)(F)F)c2cccs2)CC1 (centres undefined) | x | x | x | -6 | 2.5
NC(=O)CCCn1c(C(=O)c2ccc(Cl)cc2)c2ccc(C(F)(F)F)cc2[n+]1[O-] | x | x | x | 0 | 0.6

New compounds follow:
SMILES | YopH PTP inh | Arbovirus anti | Mtb growth | Mtb betalactam | RecA intein inh | others
CC(=O)Nc1ccc(S(=O)(=O)CCC#N)cc1 | -16 | 6 | 1% | -4 | -0.7
CN1CCN(S(=O)(=O)c2ccc(Cl)s2)CC1 | x | x | x | -2 | 1.0
CCOc1ccc(C(=O)NNC2CC(=O)N(CCc3ccccc3)C2=O)cc1OC (centres undefined) | -5 | 0 | -2% | -1 | -2.0
COc1ccccc1C(O)(c1ccccc1)C(CN1CCOCC1)c1ccccc1 (centres undefined) | x | 11 | 4% | 3 | -0.9
CCn1c(C)csc1=NC(=O)c1ccccc1O | -35 | 5 | 5% | -3 | 1.0
CCOP(=O)(Cc1ccc(C#N)o1)OCC | x | x | u | -3 | -2.3
O=c1c(-c2cnn(-c3ccccc3)c2)coc2cc(O)ccc12 | x | 6 | 33% | 68 | -7.0
COc1ccc(CNCCCO)cc1OC | -19 | 0 | -4% | -5 | 1.2
Cc1nc(-c2ccccc2)sc1C1(C)CC(c2ccccc2F)=NO1 (centres undefined) | x | x | -8% | 1 | 5.7
CC1=NN(C(=O)c2ccccc2Cl)C(O)(c2cccnc2)C1 (centres undefined) | x | 22 | -5% | 1 | -0.5
Nc1nc(CSc2nc3ccccc3[nH]2)nc(N2CCOCC2)n1 | -26 | 4 | -7% | -12 | 0.4
COc1ccc(NC(=O)c2csc(Cc3ccc(Cl)cc3)n2)cc1 | x | -19 | u | 97 | 5.9

Seven records picked at random from those above, as already listed:
SMILES | YopH PTP inh | Arbovirus anti | Mtb growth | Mtb betalactam | RecA intein inh | others
CCOc1ccc(C(=O)NNC2CC(=O)N(CCc3ccccc3)C2=O)cc1OC (centres undefined) | -5 | 0 | -2% | -1 | -2.0
Nc1nc(CSc2nc3ccccc3[nH]2)nc(N2CCOCC2)n1 | -26 | 4 | -7% | -12 | 0.4
CN1CCN(S(=O)(=O)c2ccc(Cl)s2)CC1 | x | x | x | -2 | 1.0
Cc1nc(-c2ccccc2)sc1C1(C)CC(c2ccccc2F)=NO1 (centres undefined) | x | x | -8% | 1 | 5.7
CCOP(=O)(Cc1ccc(C#N)o1)OCC | x | x | u | -3 | -2.3
COc1ccc(NC(=O)c2csc(Cc3ccc(Cl)cc3)n2)cc1 | x | -19 | u | 97 | 5.9
O=c1c(-c2cnn(-c3ccccc3)c2)coc2cc(O)ccc12 | x | 6 | 33% | 68 | -7.0
